FGF22 binding: FGF22 (human) thermal shift binding; actives 1.5% (n = 340,000); calls only at 9.99 µM; recombinant FGF22 thermal shift, SYPRO orange fluorescence; percent of sucrose octasulfate shift, DMSO zero;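 active = melting point raised past a set limit in the mean and every replicate; three in four hits are not shown here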
Target sequence (Q9HCT0 whole entry, looked up): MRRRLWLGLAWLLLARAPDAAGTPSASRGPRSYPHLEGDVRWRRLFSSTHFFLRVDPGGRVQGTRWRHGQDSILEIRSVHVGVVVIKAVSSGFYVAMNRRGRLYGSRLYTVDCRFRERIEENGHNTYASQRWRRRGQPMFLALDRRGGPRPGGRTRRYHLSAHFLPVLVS
MLL AF4-AF9 inh: blocks AF4 peptide binding to human AF9. P42568. AlphaScreen, biotin-AF4 peptide binding to FLAG-AF9. inhibition, % at 10 µM. actives 0.47% (n = 350,000). AID 651704;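 active = every replicate reaching a set inhibition limit, whatever the replicate mean, cut at about 25% in these data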;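 also: 0% = plate neutral control median and 100% = total signal loss; the record names both 10 and 1 µM as test concentration; the first replicate is given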
Target sequence (P42568 whole entry, looked up): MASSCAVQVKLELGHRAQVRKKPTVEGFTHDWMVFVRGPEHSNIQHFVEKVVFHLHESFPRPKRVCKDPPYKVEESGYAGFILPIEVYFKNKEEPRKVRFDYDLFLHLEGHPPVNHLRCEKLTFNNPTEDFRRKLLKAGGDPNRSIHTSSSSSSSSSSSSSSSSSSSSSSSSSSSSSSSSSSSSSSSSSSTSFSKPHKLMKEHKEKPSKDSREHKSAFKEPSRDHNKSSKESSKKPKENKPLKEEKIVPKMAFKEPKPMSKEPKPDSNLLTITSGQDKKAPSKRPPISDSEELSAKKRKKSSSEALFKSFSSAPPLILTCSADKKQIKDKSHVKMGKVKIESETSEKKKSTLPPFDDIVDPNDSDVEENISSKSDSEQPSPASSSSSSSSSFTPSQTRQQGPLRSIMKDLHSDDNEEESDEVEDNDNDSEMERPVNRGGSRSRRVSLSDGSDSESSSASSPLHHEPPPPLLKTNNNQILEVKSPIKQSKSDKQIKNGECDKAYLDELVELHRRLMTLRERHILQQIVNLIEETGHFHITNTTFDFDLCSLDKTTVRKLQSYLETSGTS
* hit, by the source's call; i = inactive. This is a subset. The share of hits here may be higher or lower than overall.

SMILES	FGF22 binding	MLL AF4-AF9 inh
C[C@H](CO)N1C[C@H](C)[C@@H](CN(C)C(=O)CCC(F)(F)F)OCCCC[C@H](C)Oc2ccc(NC(=O)C3CCCCC3)cc2C1=O	i	-3.2
CO[C@@H]1CN(C)C(=O)c2ccc(NC(=O)c3cc(C)on3)cc2OC[C@H](C)N(C)C[C@H]1C	i	-2.1
C[C@@H]1CN([C@H](C)CO)S(=O)(=O)c2ccc(/C=C/c3ccccc3)cc2O[C@H]1CN(C)C(=O)c1ccccc1	i	13
C[C@H]1CN([C@@H](C)CO)C(=O)Cc2cc(NS(=O)(=O)c3ccc(F)cc3)ccc2O[C@H]1CN(C)Cc1ccccc1	i	-17
CCCN(C)C[C@@H]1OCCCC[C@@H](C)Oc2ccc(NS(=O)(=O)c3c(C)noc3C)cc2C(=O)N([C@H](C)CO)C[C@@H]1C	i	-9.5
CCN1[C@@H]2Cn3c(ccc(-c4cccc(OC)c4)c3=O)[C@H]1[C@@H](C(=O)N(C)C)[C@@H]2CO	i	1.4
CCCNC(=O)N1CC2(C1)CN(C(C)=O)[C@H](CO)c1[nH]c3cc(OC)ccc3c12	i	0.7
CO[C@@H]1CN(C)C(=O)c2cc(NC(=O)C3CCCCC3)ccc2OC[C@@H](C)N(Cc2nccs2)C[C@@H]1C	i	0.8
CCC(=O)N(C)C[C@H]1Oc2cc(/C=C/c3ccccc3)ccc2S(=O)(=O)N([C@@H](C)CO)C[C@@H]1C	i	14
C[C@@H]1CN([C@H](C)CO)C(=O)c2cc(-c3cccc(C(=O)N(C)C)c3)cnc2O[C@H]1CN(C)S(=O)(=O)c1cccc(F)c1	i	-0.5
C[C@@H]1CN([C@@H](C)CO)C(=O)c2cc(NC(=O)Nc3ccccc3)ccc2O[C@@H](C)CCCCO[C@@H]1CN(C)C(=O)Cc1ccccc1	i	1.3
COc1ccc(NC(=O)N(C)C[C@H]2Oc3c(NS(=O)(=O)c4ccc(C)cc4)cccc3C(=O)N([C@@H](C)CO)C[C@H]2C)cc1	i	1.3
CO[C@@H]1CC[C@@H]2CCN(C)C(=O)[C@H](C)[C@H](OC)CN(C)C(=O)c3cccc(C#N)c3OC[C@H]1O2	i	-3.2
C[C@@H]1CN([C@@H](C)CO)C(=O)c2cccc(NS(=O)(=O)c3ccc(F)cc3)c2O[C@H]1CN(C)C(=O)Nc1cccc2ccccc12	i	-0.7
CCCC#Cc1ccc2c(c1)O[C@H](CN(C)S(=O)(=O)c1cccc(F)c1)[C@H](C)CN([C@H](C)CO)S2(=O)=O	i	-1.7
COc1ccc2c3c(n(C)c2c1)[C@H](CO)N(C(=O)c1cnccn1)CC31CN(C)C1	i	2.2
COCC(=O)N1CC2(C1)CN(Cc1ccccc1F)[C@@H](CO)c1[nH]c3cc(OC)ccc3c12	i	3.3
COc1cccc(CNC(=O)C[C@@H]2C=C[C@H](NC(C)=O)[C@@H](CO)O2)c1	i	-1.6
Cc1noc(C)c1S(=O)(=O)Nc1ccc2c(c1)C(=O)N([C@H](C)CO)C[C@@H](C)[C@H](CN(C)Cc1ccc(C(F)(F)F)cc1)OCCCC[C@@H](C)O2	i	3.2
O=C(Nc1ccc(Cl)c(Cl)c1)N[C@H]1CC[C@H](CCn2cc(C3CCCCC3)nn2)O[C@@H]1CO	i	1.2
COc1ccccc1-c1ccc2c(c1)O[C@@H](CN(C)CC1CCCC1)[C@H](C)CN([C@@H](C)CO)S2(=O)=O	i	6.0
COc1ccc2c3c([nH]c2c1)[C@@H](CO)N(C(=O)CN(C)C)CC31CCN(CC2CCCCC2)CC1	i	12
C[C@@H]1CN([C@@H](C)CO)C(=O)Cc2cc(NC(=O)C3CC3)ccc2O[C@H]1CN(C)C(=O)NC1CCCCC1	i	-2.3
COc1ccc(-c2cn(CC[C@H]3CC[C@H](NS(=O)(=O)c4ccccc4C)[C@H](CO)O3)nn2)cc1	i	2.8
O=C(C[C@@H]1C[C@H]2c3cc(NS(=O)(=O)c4ccc(F)cc4)ccc3O[C@H]2[C@@H](CO)O1)N1CCc2ccccc2C1	i	0.0
C[C@@H]1CN([C@@H](C)CO)C(=O)c2cc(Br)cnc2O[C@H]1CN(C)C(=O)c1ccccn1	i	1.0
Cc1ccccc1-c1cnc2c(c1)C(=O)N([C@@H](C)CO)C[C@@H](C)[C@@H](CN(C)C(=O)CN(C)C)O2	i	-1.3
CS(=O)(=O)N1[C@@H](CO)[C@@H](c2ccccc2)C12CN(Cc1cc(F)ccc1F)C2	i	2.0
COc1ccc(CNC(=O)C[C@@H]2C[C@@H]3c4cc(NC(=O)NC5CCCC5)ccc4O[C@@H]3[C@H](CO)O2)cc1	i	-1.3
COc1ccc(C#Cc2cccc(-c3nc(C(=O)O)cc4c3[C@@H](CCO)N(S(=O)C(C)(C)C)C4)c2)cc1OC (some centres not stated)	i	2.5
CNC[C@@H]1Oc2c(NC(=O)C3CC3)cccc2C(=O)N([C@H](C)CO)C[C@@H]1C	i	-1.0
COc1ccc2c3c([nH]c2c1)[C@H](CO)N(C(=O)C1CC1)CC31CCN(S(C)(=O)=O)CC1	i	-15
CC(C)NC(=O)N(C)C[C@H]1Oc2ccc(NC(=O)Cc3ccccc3)cc2CC(=O)N([C@@H](C)CO)C[C@H]1C	i	-3.2
CNC[C@H]1Oc2c(NS(=O)(=O)c3cccs3)cccc2C(=O)N([C@@H](C)CO)C[C@@H]1C	i	-2.1
CCCC(=O)Nc1ccc2c(c1)OC[C@@H](C)N(Cc1cccc(F)c1)C[C@H](C)[C@H](OC)CN(C)C2=O	i	2.3
CC(C)(C)c1ccc(S(=O)(=O)NCC2CCN(C(=O)C(=O)c3cc4ccccc4o3)CC2)cc1	i	3.5
COc1ccc(NC(=O)Nc2ccc3c(c2)C(=O)N([C@H](C)CO)C[C@H](C)[C@H](CN(C)C(=O)Nc2ccc(OC)cc2)OCCCC[C@@H](C)O3)cc1	i	-9.8
CO[C@@H]1CN(C)C(=O)c2ccc(NS(=O)(=O)C3CCCCC3)cc2OC[C@H](C)NC[C@H]1C	i	-0.7
O=C(NCC[C@@H]1CC[C@@H](NC(=O)C2CCCCC2)[C@H](CO)O1)c1cnccn1	i	-1.8
C[C@H](CO)N1C[C@H](C)[C@@H](CN(C)Cc2ccccc2)Oc2ccc(NS(=O)(=O)c3cccs3)cc2C1=O	i	-3.0

4 successive compounds already listed, for reference:
SMILES	FGF22 binding	MLL AF4-AF9 inh
C[C@@H]1CN([C@@H](C)CO)C(=O)Cc2cc(NC(=O)C3CC3)ccc2O[C@H]1CN(C)C(=O)NC1CCCCC1	i	-2.3
COc1ccc(-c2cn(CC[C@H]3CC[C@H](NS(=O)(=O)c4ccccc4C)[C@H](CO)O3)nn2)cc1	i	2.8
O=C(C[C@@H]1C[C@H]2c3cc(NS(=O)(=O)c4ccc(F)cc4)ccc3O[C@H]2[C@@H](CO)O1)N1CCc2ccccc2C1	i	0.0
C[C@@H]1CN([C@@H](C)CO)C(=O)c2cc(Br)cnc2O[C@H]1CN(C)C(=O)c1ccccn1	i	1.0

Some of these compounds in order of molecular weight, falling.
SMILES	FGF22 binding	MLL AF4-AF9 inh
O=C(C[C@@H]1C[C@H]2c3cc(NS(=O)(=O)c4ccc(F)cc4)ccc3O[C@H]2[C@@H](CO)O1)N1CCc2ccccc2C1	i	0.0
COc1ccc(CNC(=O)C[C@@H]2C[C@@H]3c4cc(NC(=O)NC5CCCC5)ccc4O[C@@H]3[C@H](CO)O2)cc1	i	-1.3
O=C(NCC[C@@H]1CC[C@@H](NC(=O)C2CCCCC2)[C@H](CO)O1)c1cnccn1	i	-1.8

The results go on:
SMILES	FGF22 binding	MLL AF4-AF9 inh
CC(=O)N(C)C[C@H]1Oc2cc(C#Cc3ccc(F)cc3)ccc2S(=O)(=O)N([C@H](C)CO)C[C@@H]1C	i	-0.3
COCC(=O)N1[C@H](C#N)[C@H](c2ccccc2-c2ccccc2)[C@H]1CO	i	-0.9
Cc1ccc(S(=O)(=O)Nc2ccc3c(c2)C(=O)N([C@H](C)CO)C[C@@H](C)[C@H](CN(C)C(=O)Nc2cccc4ccccc24)OCCCC[C@@H](C)O3)cc1	i	-5.0
C[C@@H]1CCCCO[C@H](CN(C)S(C)(=O)=O)[C@H](C)CN([C@H](C)CO)C(=O)c2cc(N(C)C)ccc2O1	i	-3.2
CC(C)C[C@H]1COc2cccc(NCCO)c2S(=O)(=O)N1	i	-1.2
CO[C@H]1CN(C)C(=O)c2ccc(NS(=O)(=O)c3cn(C)cn3)cc2OC[C@H](C)N(CCC(F)(F)F)C[C@H]1C	i	-12
O=C([C@H]1[C@H](CO)[C@H]2Cn3c(cccc3=O)[C@@H]1N2CC1CCCC1)N1CCCCC1	i	3.1
C[C@H](CO)N1C[C@H](C)[C@@H](CN(C)Cc2ccc(Cl)c(Cl)c2)Oc2c(cccc2N(C)C)C1=O	i	6.2
C[C@H](CO)N1C[C@H](C)[C@H](CN(C)C(=O)c2ccc3c(c2)OCO3)Oc2cc(/C=C/c3ccccc3)ccc2S1(=O)=O	i	3.3
C[C@@H]1CCCCO[C@H](CN(C)CC2CCCCC2)[C@@H](C)CN([C@H](C)CO)C(=O)c2cc(NC(=O)Nc3cccc4ccccc34)ccc2O1	i	7.8
CO[C@@H](CN(C)Cc1cc(F)ccc1F)[C@H](C)CN(C(=O)Nc1ccc(F)cc1)[C@@H](C)CO	i	-1.8
C[C@@H]1CN([C@H](C)CO)C(=O)c2cc(NC(=O)Nc3ccc(F)cc3)ccc2O[C@@H]1CN(C)CC1CCCCC1	i	1.3
Cc1ccc(S(=O)(=O)Nc2ccc3c(c2)C(=O)N([C@@H](C)CO)C[C@@H](C)[C@@H](CN(C)S(=O)(=O)c2c(C)noc2C)O3)cc1	i	2.9
CN1C[C@H](O)COC[C@H]2O[C@@H](CC(=O)NC3CCC3)CC[C@@H]21	i	-3.2
C[C@@H]1CN([C@H](C)CO)C(=O)Cc2cc(NC(=O)C3CC3)ccc2O[C@@H]1CN(C)Cc1ccc(C(=O)Nc2ccccc2N)cc1	i	0.5
CO[C@@H]1CN(C)C(=O)c2cc(NS(=O)(=O)c3ccccc3C)ccc2OC[C@H](C)NC[C@@H]1C	i	-2.8
CCCNC(=O)N[C@@H]1CC[C@H](CCn2cc(C3CCCC3)nn2)O[C@@H]1CO	i	-1.8
C[C@@H]1CN([C@@H](C)CO)C(=O)c2cccc(NC(=O)c3ccc(-c4nccs4)cc3)c2O[C@H]1CN(C)Cc1ccncc1	i	0.0
COc1ccc(-c2cnc3c(c2)C(=O)N([C@H](C)CO)C[C@H](C)[C@@H](CN(C)Cc2cccnc2)O3)cc1	i	-3.8
C[C@H](CO)N1C[C@H](C)[C@H](CN(C)C(=O)c2cccnc2)Oc2cc(C#CC3(O)CCCC3)ccc2S1(=O)=O	i	-1.4
C[C@H]1CN([C@@H](C)CO)C(=O)c2cccc(N(C)C)c2O[C@@H]1CN(C)S(C)(=O)=O	i	-1.4
Cc1noc(C)c1NC(=O)N(C)C[C@@H]1Oc2ccc(NS(=O)(=O)c3c(C)noc3C)cc2CC(=O)N([C@H](C)CO)C[C@H]1C	i	-5.0
C=CC1=CCN(S(=O)(=O)C(C)(C)C)[C@@H]1CCO	i	1.8
COCC(=O)N1CC2(C1)CN(C(=O)c1ccccn1)[C@@H](CO)c1c2c2ccc(OC)cc2n1C	i	-5.3
Cc1ccc(S(=O)(=O)N(C)C[C@H]2Oc3ccc(NS(=O)(=O)c4c(C)noc4C)cc3CC(=O)N([C@@H](C)CO)C[C@@H]2C)cc1	i	-1.3
C[C@H](CO)N1C[C@H](C)[C@H](CN(C)S(C)(=O)=O)Oc2ccc(NC(=O)Nc3ccc(F)cc3)cc2CC1=O	i	-0.4
COC(=O)c1cc2c(c3c4cc(C)ccc4n(S(=O)(=O)c4cccc(C)c4)c13)C(=O)N(Cc1ccc(N(C)C)cc1)C2	i	-1.0
C[C@@H]1CN([C@H](C)CO)S(=O)(=O)c2ccc(C#C[C@@H](C)O)cc2O[C@@H]1CN(C)C(=O)C1CC1	i	-7.6
O=C(Nc1ccccc1F)N[C@@H]1CC[C@@H](CCNC(=O)C2CCCCC2)O[C@H]1CO	i	-0.8
Cc1ccc(S(=O)(=O)Nc2ccc3c(c2)C(=O)N([C@@H](C)CO)C[C@@H](C)[C@H](CN(C)Cc2ccc(C(F)(F)F)cc2)OCCCC[C@@H](C)O3)cc1	i	-2.6
CCCNC(=O)N1[C@H](CO)[C@@H](c2ccccc2)C12CN(CCC(F)(F)F)C2	i	0.1
C[C@@H](NC(=O)C[C@@H]1CC[C@H](NC(=O)CN2CCOCC2)[C@H](CO)O1)c1ccccc1	i	3.0
COCC(=O)N(C)C[C@H]1Oc2ncc(C3=CCCC3)cc2C(=O)N([C@H](C)CO)C[C@H]1C	i	-1.5
C[C@@H](NC(=O)C[C@@H]1CC[C@@H]2[C@H](COC[C@@H](O)CN2Cc2cc(F)ccc2F)O1)c1ccccc1	i	-0.9
C[C@H](O)C#Cc1cnc2c(c1)C(=O)N([C@@H](C)CO)C[C@H](C)[C@H](CN(C)C(=O)CN1CCOCC1)O2	i	-2.8
O=C(NC1CCC1)[C@H]1[C@H](CO)[C@H]2Cn3c(cccc3=O)[C@@H]1N2CC1CCCCC1	i	1.2
C[C@H]1CN([C@@H](C)CO)S(=O)(=O)c2ccc(C3=CCCC3)cc2O[C@H]1CN(C)C	i	-2.7
C[C@@H]1CCCCO[C@H](CN(C)C(=O)NC2CCCCC2)[C@@H](C)CN([C@H](C)CO)C(=O)c2cc(NC(=O)Nc3ccc(C(F)(F)F)cc3)ccc2O1	i	-0.2
O=C(c1ccccc1)N1CC2(C1)[C@H](c1ccccc1)[C@@H](CO)N2CC1CC1	i	-0.4

Compound activity as filed in PubChem BioAssay.
